# Bioassay records (PubChem BioAssay)
# miR-21 FLuc = miR-21 reporter, rising signal; HeLa miR-21 FLuc reporter, luciferase, 48 h; Potency, µM (highest dose often 38.3 µM), inactives show at the highest dose reporter change, positive = more light; 340,000 tested, under 10 active; AID 2288; active = well fitted rising curve with a large enough effect; inconclusive = small, poorly fitted or top-dose-only effect; inactive = no such curve, though single readings can be large or run the other way;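 also: % of control where 0% means no effect; miR-21 action dims this reporter so a rising signal means less miR-21 action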
#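 Using DMEM plus 10% FBS, HeLa miR-21-FLuc cells are incubated with test compounds (final up to about 40uM) for 48 hours; firefly luciferase signal is then imaged following reagent-mediated lysis.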
# GLA inh pH 4.5 = inhibitors of human alpha-galactosidase A at pH 4.5; P06280; purified enzyme, 4-MU-alpha-Gal fluorescence, pH 4.5; activity change, negative = inhibition, % at 105 µM; 230,000 tested, under 10 active; AID 1467; inconclusive = small, poorly fitted or top-dose-only inhibition, or a rising curve; inactive = flat fitted curve, though single readings scatter; no compound was filed as active;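 also: 0% = full activity with enzyme and -100% = basal without enzyme; dose as in the result columns while the protocol names 77 µM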
# Target sequence (P06280 whole entry, looked up): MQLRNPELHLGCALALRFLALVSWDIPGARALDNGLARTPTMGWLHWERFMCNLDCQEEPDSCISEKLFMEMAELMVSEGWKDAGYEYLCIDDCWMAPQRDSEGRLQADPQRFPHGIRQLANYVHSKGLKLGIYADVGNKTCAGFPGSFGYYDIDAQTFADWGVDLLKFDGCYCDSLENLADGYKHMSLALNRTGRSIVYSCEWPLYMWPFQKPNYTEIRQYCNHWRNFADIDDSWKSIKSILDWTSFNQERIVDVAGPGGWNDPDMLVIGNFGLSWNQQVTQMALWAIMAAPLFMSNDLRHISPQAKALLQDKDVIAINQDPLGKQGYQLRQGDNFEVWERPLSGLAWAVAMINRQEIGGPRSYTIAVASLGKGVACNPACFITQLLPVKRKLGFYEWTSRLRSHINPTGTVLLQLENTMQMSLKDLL
# * marks the source's active call; other numbers are inactive results; ? = inconclusive; · = not tested or not shown; & = joins results of further samples. Some of the compounds tested; rates above refer to the full screens.
structure	miR-21 FLuc	GLA inh pH 4.5
C[C@@H]1[C@H](C)CC[C@@]2(C(=O)O[C@H]3O[C@@H](CO[C@H]4O[C@@H](CO)[C@@H](O[C@H]5O[C@@H](C)[C@@H](O)[C@@H](O)[C@@H]5O)[C@@H](O)[C@@H]4O)[C@@H](O)[C@@H](O)[C@@H]3O)CC[C@]3(C)C(=CC[C@H]4[C@@]5(C)C[C@@H](O)[C@@H](O)[C@](C)(CO)[C@@H]5CC[C@@]43C)[C@@H]12	·	-6
NC(=O)c1ccc(-c2nc(-c3ccc4c(c3)OCO4)c(-c3ccccn3)[nH]2)cc1	·	2
CN(C)CCO[C@](C)(c1ccccc1)c1ccccn1	·	0
CC(=O)O[C@]1(C(C)=O)CC[C@H]2C3C=C(Cl)C4=CC(=O)[C@@H]5C[C@H]5[C@]4(C)C3CC[C@@]21C (some centres undefined)	·	-1
Cc1nc2c([nH]1)c(=O)n(C)c(=O)n2Cc1ccco1	·	0
Cc1cn([C@H]2C[C@H](O)[C@@H](CO)O2)c(=O)[nH]c1=O	·	-5&1
COc1c(O)cc2c(c1O)[C@@H]1O[C@@H](CO)[C@@H](O)[C@@H](O)[C@@H]1OC2=O	·	8
CN1CCC(Nc2ncc3ncnc(Nc4ccc(F)c(Cl)c4)c3n2)CC1	·	-11
COc1ccc([C@@H]2CNC(=O)C2)cc1OC1CCCC1	·	1&-13&-1&8
CN=C(NC#N)Nc1ccc(C2=NNC(=O)CC2C)cc1 (centres undefined)	·	-12
O=C(O)[C@@H]1[C@@H]2C[C@H]3c4[nH]c5ccccc5c4CCN3C[C@@H]2CC[C@@H]1O	·	-3
C[C@H]1C[C@@H]2[C@H]3CCC4=CC(=O)C=C[C@@]4(C)[C@@]3(Cl)[C@@H](O)C[C@]2(C)[C@]1(OC(=O)c1ccco1)C(=O)CCl	·	0
C[C@@H]1COc2c(N3CCN(C)CC3)c(F)cc3c(=O)c(C(=O)O)cn1c23	·	4
COC(=O)Nc1nc2ccc(S(=O)c3ccccc3)cc2[nH]1 (centres undefined)	·	0
CCN(CCCCOC(=O)c1ccc(OC)c(OC)c1)[C@@H](C)Cc1ccc(OC)cc1	·	3

structure	miR-21 FLuc	GLA inh pH 4.5
COc1ccc(-c2oc3c(CC=C(C)C)c(O[C@H]4OC(CO)C(O)C(O)C4O)cc(O)c3c(=O)c2O[C@@H]2OC(C)C(O)C(O)C2O)cc1 (some centres undefined)	·	13
CCc1cc(-c2n[nH]c(C)c2-c2ccc3c(c2)OCCO3)c(O)cc1O	·	-4
Oc1ccc([C@@H]2CNCCc3c2cc(O)c(O)c3Cl)cc1	·	-3
C[C@@]12CC3CC(N)(C1)C[C@@](C)(C3)C2	·	2
NC(=O)c1ccc([N+](=O)[O-])cc1Cl	·	6
NC(=O)NC(=O)Cc1ccccc1	·	2
CCCN(CCC)C(=O)[C@@H](CCC(=O)O)NC(=O)c1ccccc1	·	2
CC(C)[C@@H]1C(=O)N(S(C)(=O)=O)[C@H]2CCN(C(=O)/C=C\CN3CCCCC3)[C@@H]12	·	-1
CC1(C)OC2CC(=O)OC[C@@]23C1CC(=O)[C@]1(C)C3CC[C@@]2(C)C(c3ccoc3)OC(=O)C3O[C@@]321 (some centres undefined)	·	-2
Cc1ccc(C(=O)C(C)CN2CCCCC2)cc1 (centres undefined)	·	1
CCn1cc(C(=O)O)c(=O)c2cc(F)c(N3CCN[C@@H](C)C3)c(F)c21	·	-3
COc1cc2[nH]c(=O)[nH]c(=O)c2cc1OC	·	-1
C[C@@H](Cc1cccc(C(F)(F)F)c1)NCCOC(=O)c1ccccc1	·	0
CC1(C)Oc2ccc(C#N)cc2[C@H](N2CCCC2=O)[C@H]1O	·	4&4
OCCOCCN1CCN([C@@H](c2ccccc2)c2ccc(Cl)cc2)CC1	·	-4

# Some of the entries so far, with values ahead of the structure.
miR-21 FLuc	GLA inh pH 4.5	SMILES
·	13	COc1ccc(-c2oc3c(CC=C(C)C)c(O[C@H]4OC(CO)C(O)C(O)C4O)cc(O)c3c(=O)c2O[C@@H]2OC(C)C(O)C(O)C2O)cc1 (some centres undefined)
·	-4	CCc1cc(-c2n[nH]c(C)c2-c2ccc3c(c2)OCCO3)c(O)cc1O
·	-3	Oc1ccc([C@@H]2CNCCc3c2cc(O)c(O)c3Cl)cc1
·	2	C[C@@]12CC3CC(N)(C1)C[C@@](C)(C3)C2
·	6	NC(=O)c1ccc([N+](=O)[O-])cc1Cl
·	2	NC(=O)NC(=O)Cc1ccccc1
·	2	CCCN(CCC)C(=O)[C@@H](CCC(=O)O)NC(=O)c1ccccc1
·	-1	CC(C)[C@@H]1C(=O)N(S(C)(=O)=O)[C@H]2CCN(C(=O)/C=C\CN3CCCCC3)[C@@H]12
·	-2	CC1(C)OC2CC(=O)OC[C@@]23C1CC(=O)[C@]1(C)C3CC[C@@]2(C)C(c3ccoc3)OC(=O)C3O[C@@]321 (some centres undefined)
·	1	Cc1ccc(C(=O)C(C)CN2CCCCC2)cc1 (centres undefined)
·	-3	CCn1cc(C(=O)O)c(=O)c2cc(F)c(N3CCN[C@@H](C)C3)c(F)c21
·	-1	COc1cc2[nH]c(=O)[nH]c(=O)c2cc1OC
·	0	C[C@@H](Cc1cccc(C(F)(F)F)c1)NCCOC(=O)c1ccccc1
·	4&4	CC1(C)Oc2ccc(C#N)cc2[C@H](N2CCCC2=O)[C@H]1O
·	-4	OCCOCCN1CCN([C@@H](c2ccccc2)c2ccc(Cl)cc2)CC1

# (continued)
# Screens in order – miR-21 FLuc | GLA inh pH 4.5
> CC(C)(CO)[C@@H](O)C(=O)NCCCO
    · | 8&11
> CC[C@@]12CCCN3CCc4c(n(c5ccccc45)[C@](O)(C(=O)OC)C1)C32 (some centres undefined)
    · | -6
> CCOc1ccccc1NC(=O)CSc1nc2ccccc2c2nc(CCn3cncc3C)nn12
    27% | ·
> Cc1ccc(Cc2c(C)nc3c(-c4ccccc4)c(C)[nH]n3c2=O)cc1
    0% | ·
> Cc1cc(Cl)ccc1NC(=O)Cn1nc(C)c2c(C)n(-c3ccccc3)nc2c1=O
    7% | ·
> COc1ccc(Cn2c(CCC(=O)Nc3cccc(OC)c3)nc3cccnc32)cc1
    1% | ·
> Cc1cc(NC(=O)C2CCN(S(=O)(=O)c3ccc4[nH]c(=O)oc4c3)CC2)ccc1Br
    ? | ·
> COc1ccc(NC(=O)C2CCCN(c3nnc(C)c4c(C)n(-c5ccccc5)nc34)C2)cc1Cl (centres undefined)
    ? | ·
> COc1ccc2c(CNCCc3ccccc3OC)c(C(=O)O)n(Cc3ccc(F)cc3Cl)c2c1
    24% | ·
> Cc1nc2nc(NC(=O)c3cccc(Cl)c3)[nH]n2c(=O)c1Cc1ccccc1
    -1% | ·
> COc1cc(C(=O)NC(c2ccccc2Cl)c2cc(Cl)c3cccnc3c2O)cc(OC)c1OC (centres undefined)
    ? | ·
> CC(C)(C)c1ccc(S(=O)(=O)c2cnc(SCC(=O)Nc3ccc(F)c(Cl)c3)[nH]c2=O)cc1
    -3% | ·
> Cc1ccc(CNC(=O)C2CCN(S(=O)(=O)c3c(C)noc3/C=C/c3ccccc3F)CC2)o1
    6% | ·
